Compound activity from PubChem.
Vif TR-FRET: HIV-1 Vif–A3G interaction blockers – biochemical, TR-FRET, GST-Vif 1-94, biotin-A3G peptide, dose response retest, primary screen (AID 1117319). TR-FRET GST-Vif / biotin-A3G peptide binding; higher % means a stronger effect; test concentration not given here; strong numbers were not always called active. 260,000 compounds, 0.57% hits. inhibition, %; hits with a dose series show IC50 in µM;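 active = above the screen mean plus three standard deviations and confirmed in dose response; inconclusive = results disagree or hit not tested in dose response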;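 also: Vif residues 1-94 fused to GST binding biotinylated APOBEC3G peptide 110-148; 0% = full assay without inhibitor and 100% = GST in place of GST-Vif; retest series ran down from 100 µM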
MLL AF4-AF9 inh: MLL-AF4/AF9 protein interaction inhibition | P42568 | AlphaScreen, biotin-AF4 peptide binding to FLAG-AF9 | inhibition, % at 10 µM | 350,000 compounds, 0.47% hits;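 active = every replicate reaching a set inhibition limit, whatever the replicate mean, cut at about 25% in these data; inconclusive = mean inhibition reaches that limit but some replicates miss it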;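 also: 0% = plate neutral control median and 100% = total signal loss; the record names both 10 and 1 µM as test concentration; the first replicate is given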
LANA-H2A inh: blocks KSHV LANA binding to histone H2A/H2B. AID 2629. Q9QR71. inhibition, % (no concentration beside the values). 320,000 compounds, 0.6% hits. cell-free LANA-H2A/H2B peptide, fluorescence polarization; in the data active = inhibition mostly above about 10%, no sharp cut-off; inactive = mostly below about 6.7%;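 also: stock transfer was 7.5 nL into about 10 µL; 0% = median of vehicle wells and 100% = median of positive control wells; one replicate is shown; the record names a cut of 25% in any replicate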
Target sequence (Q9QR71 whole entry, looked up): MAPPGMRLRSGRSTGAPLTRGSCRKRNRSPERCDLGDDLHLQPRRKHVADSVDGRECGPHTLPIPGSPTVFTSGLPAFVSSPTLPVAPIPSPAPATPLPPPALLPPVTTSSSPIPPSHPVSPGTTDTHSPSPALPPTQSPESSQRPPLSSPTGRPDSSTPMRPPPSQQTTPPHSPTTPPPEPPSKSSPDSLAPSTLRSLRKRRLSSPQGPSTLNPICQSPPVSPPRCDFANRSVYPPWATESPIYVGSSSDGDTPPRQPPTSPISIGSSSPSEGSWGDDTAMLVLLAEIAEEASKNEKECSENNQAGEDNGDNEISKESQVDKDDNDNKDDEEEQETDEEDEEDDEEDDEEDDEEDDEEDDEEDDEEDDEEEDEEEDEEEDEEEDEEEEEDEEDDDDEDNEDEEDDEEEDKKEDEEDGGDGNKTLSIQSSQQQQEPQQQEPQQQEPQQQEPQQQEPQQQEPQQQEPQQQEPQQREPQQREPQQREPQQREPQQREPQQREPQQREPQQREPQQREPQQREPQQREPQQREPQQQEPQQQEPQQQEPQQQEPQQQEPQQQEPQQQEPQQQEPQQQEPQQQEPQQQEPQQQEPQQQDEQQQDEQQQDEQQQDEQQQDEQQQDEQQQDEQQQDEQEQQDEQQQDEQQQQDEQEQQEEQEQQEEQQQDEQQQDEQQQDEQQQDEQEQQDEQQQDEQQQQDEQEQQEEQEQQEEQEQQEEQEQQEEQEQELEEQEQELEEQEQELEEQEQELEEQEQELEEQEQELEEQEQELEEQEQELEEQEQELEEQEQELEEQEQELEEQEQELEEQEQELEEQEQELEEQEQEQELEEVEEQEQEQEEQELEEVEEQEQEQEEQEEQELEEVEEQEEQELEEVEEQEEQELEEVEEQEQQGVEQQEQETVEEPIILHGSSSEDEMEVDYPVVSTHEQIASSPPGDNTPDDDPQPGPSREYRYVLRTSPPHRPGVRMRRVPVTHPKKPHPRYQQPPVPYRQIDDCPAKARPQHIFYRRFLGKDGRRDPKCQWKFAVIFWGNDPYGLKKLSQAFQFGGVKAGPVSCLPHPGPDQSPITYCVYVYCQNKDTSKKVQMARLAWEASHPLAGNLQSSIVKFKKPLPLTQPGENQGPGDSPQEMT
Beta apoptosis: blocks beta cell apoptosis; protection from apoptosis, % (test concentration not listed); INS-1E cytokine-induced death, ATP luminescence, 48 h; percent of positive-control rescue, neutral wells zero; AID 435005; 300,000 compounds, 0.8% hits;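 active = all replicates at 75% or more, or half of them and the mean; inconclusive = half reach 75% but not the mean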;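 also: 0% = cytokine-treated negative control wells and 100% = positive control rescue; higher means more ATP so stronger rescue from cytokine killing; wells of about 40 µL received 100 nL stock; the first replicate is given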
Bfl-1 A1 inh: inhibitors of the anti-apoptotic protein A1, read as caspase activation | 330,000 compounds, 0.066% hits | MEF A1-2A-BIM cells, Caspase-Glo 3/7 luminescence, 3 h; percent of clofoctol response, vehicle zero | caspase activation, % (test concentration not listed) | AID 2462;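 active = over half of replicate activation scores above 10%, or exactly half above 10 with the replicate mean above 10; inconclusive = replicate mean below 10 yet half the replicates above 10; inactive = over half of replicates below 10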;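 also: wells of about 30 µL received 50 nL stock; many hits fall short of the cut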
Calb FLC: affects C. albicans growth with fluconazole. 300,000 compounds, 0.57% hits. C. albicans CaCi-2 (fluconazole-resistant clinical isolate) + fluconazole, Alamar Blue growth, 48 h. growth inhibition, % (test concentration not listed). AID 1979;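 active = most replicates above 75%; inconclusive = exactly half above 75%; inactive = most below 75%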;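 also: all wells also contain fluconazole at 8 µg/ml as a sub-toxic cotreatment; 0% = median of DMSO wells and 100% = median of geldanamycin control wells; wells of about 8 µL received 7.5 nL stock; the first replicate is given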
RanGTP-Imp inh: inhibitors of RanGTP-importin-beta interaction, primary screen, biochemical, FRET, CFP-Ran, YFP-importin-beta, homogeneous; inhibition, % (concentration not given with the values); cell-free CFP-Ran/YFP-importin-beta FRET ratio; 300,000 compounds, 1.1% hits;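 active = most replicates above 15%; inconclusive = exactly half above 15%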;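 also: 0% = DMSO wells and 100% = Ran loaded with GDP instead of GTP; wells of about 40 µL received 100 nL stock; the first replicate is given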
T cruzi repl: T. cruzi replication inhibition. T. cruzi beta-gal in NIH3T3, luminescence, 90 h. inhibition, % (no concentration beside the values). 300,000 compounds, 1.4% hits. AID 1885;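 active = mean inhibition across valid replicates above about 55%, limit read from the data; inconclusive = mean below that limit but half or more replicates reach it; inactive = mean below it, under half of replicates reach it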;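 also: signal also drops with host cell toxicity which is not excluded here; 0% = plate median of DMSO wells and 100% = zero luminescence signal; higher percent means less beta-gal luminescence so fewer parasites; stock transfer was 50 nL into about 50 µL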
* = called active by the depositor; u = inconclusive; x = no result given; & = joins results of further samples. Hits appear at their usual frequency. Share with any hit: about 4.3%.

SMILES	Vif TR-FRET	MLL AF4-AF9 inh	LANA-H2A inh	Beta apoptosis	Bfl-1 A1 inh	Calb FLC	RanGTP-Imp inh	T cruzi repl
CCc1ccccc1NC(=O)NNC(=O)CCc1ccc(OC)cc1	x	-1.1	-2.7	-3	1.2	4	-2.9	3
COC(=O)CN(c1nc(C)c(Br)c(OC)n1)S(=O)(=O)c1ccccc1	x	-5.5	-5.5	x	-0.1	2	-2.1	4
COc1ccccc1/C=N/NS(=O)(=O)c1ccccc1	-3%	-2.1	-0.2	-1	0.8	-21	7.0	3
Cc1cccc(C)c1NC(=O)c1c[nH]c2ccccc12	-11%	-2.5	0.3	-5	-1.4	0	1.2	-4
c1ccc(-c2cc3c(N4CCCCC4)ncnc3s2)cc1	x	1.9	3.9	-3	0.2	20	2.8	11
Nc1ncnc2c1ncn2[C@@H]1O[C@H](CNCc2cn(CC(=O)NC3CC3)c3ccccc23)[C@@H](O)[C@H]1O	-2%	-4.9	-402	-5	0.0	x	x	x
COc1cc([N+](=O)[O-])ccc1-c1ccc(C(=O)Nc2ccc(NC(C)=O)cc2)o1	x	6.4	5.4	2	0.3	-4	3.1	-7
O=C1CCC(C(=O)OC(C(=O)c2c[nH]c3ccccc23)c2ccccc2)=NN1 (stereo not drawn)	x	-1.2	-2.4	-1	-0.2	11	-5.0	-17
CC(=O)NC1CC2CCCC(C1)N2C(=O)Nc1ccc(Cl)c(C(F)(F)F)c1 (stereo not drawn)	-10%	x	2.8	6	0.6	-8	-2.4	-25
CCNC(=S)N(Cc1c(C)noc1C)c1ccccc1	x	x	1.3	3	-0.4	1	3.6	-18
Cc1nc(Nc2ccc3c(c2)OCO3)c2oc3ccccc3c2n1	14%	x	-1.9	7	-0.3	u	-1.6	-9
CCN(C(=O)c1coc(=O)c(Br)c1)c1ccc2c(c1)OCO2	1.1µM*	x	-0.5	4	0.5	4	-11	29
COCCCNC(=O)c1ccc(CN2CCc3ccccc3C2)cc1	-2%	0.4	-4.9	-2	2.8	-3	0.3	4
Cc1ccc(N2C(=O)NC(C(F)(F)F)(C(F)(F)F)C3=C2CC(C)(C)CC3=O)cc1	-2%	-8.5	1.0	-15	0.5	7	5.1	19
COc1ccccc1N1CCN(S(=O)(=O)CCNC(=O)C2CC2)CC1	7%	3.0	1.0	-8	1.2	-4	7.6	-3
Cc1cccc(NC(=O)/C(C#N)=C\c2cc(C)n(-c3ccc(C(=O)O)cc3)c2C)c1	-2%	4.0	2.7	-2	0.1	-11	-1.8	-6
Cc1ccc2nnn(Cc3cccc(C(C)(C)C)c3O)c2c1	x	3.5	5.6	11	-0.4	-15	9.3	-5
Cc1csc(NC(=O)CCCSc2nc3ccccc3s2)n1	-2%	x	4.4	-2	-0.6	-6	-1.3	-11
O=C1CCC(C(=O)Nc2ccc(OC(F)F)cc2)N1 (stereo not drawn)	11%	x	0.1	-2	0.5	-13	6.2	9
CCn1c(C(=O)N2CCc3ccccc3C2)cc2sccc21	75%	4.7	1.1	-9	0.2	-3	0.5	14
Cc1ccc(NC(=O)c2cccs2)cc1NC(=O)c1cccnc1	-2%	-1.3	3.8	1	1.4	-8	4.4	12
Cc1nc(NC(=O)CSc2nc3cccnc3n2C2CCCCC2)sc1C	-7%	x	-0.2	16	-0.2	3	-2.5	-10
Cc1cc(CN2CCN(CCC#N)CC2)c(O)c(C2(C)CCCCC2)c1	1%	x	-9.7	7	1.2	x	-3.6	55*
COC(=O)CCc1c(C)c(C(=O)c2cc(F)c(F)c(F)c2F)c2ccccn12	x	5.3	2.5	-1	0.1	7	4.7	-2
CC(C)OCC(O)Cn1c(N2CCCC2)nc2c1c(=O)[nH]c(=O)n2C (stereo not drawn)	4%	x	0.3	-3	-0.2	7	-2.7	-3
CSc1ccc(NC(=O)NCc2cccnc2)cc1	-4%	-0.6	5.5	-4	2.4	-1	3.3	-2
Oc1ccc(N2CCN(Cc3c(-c4ccccc4)nc4ccccn34)CC2)cc1	x	8.4	5.2	7	0.7	-16	2.8	24
Cc1ccc(C(C)C)cc1NC(=O)Nc1ccc([N+](=O)[O-])cc1	-3%	9.5	-1.0	121*	0.9	-6	8.9	51
Cc1ccnc(SCc2cc(=O)c(OC(=O)c3ccc(S(=O)(=O)N(C)C)cc3)co2)n1	x	2.0	1.0	3	0.1	u	-3.3	4
CC(=O)N1CCn2c3c(c4cc(C)ccc42)CCCC31 (stereo not drawn)	x	5.8	2.7	-5	-0.3	u	-2.2	-6
CCOc1ccc(C(=O)NC(=S)Nc2ccccc2N2CCCCC2)cc1[N+](=O)[O-]	x	x	-0.9	8	-0.6	13	3.6	39
Cn1cc(CN2CCCCC2c2ccccn2)c(-c2ccc3c(c2)OCCO3)n1 (stereo not drawn)	-2%	-3.2	-6.4	-5	0.8	-24	-1.4	-8
Cc1cccc(-n2c(SCc3cc(=O)n4ccsc4n3)nc3ccccc3c2=O)c1	3%	x	2.6	-3	-1.3	7	0.8	28
COc1ccc(-n2ncc(S(=O)(=O)c3ccccc3)c2-c2ccc(Cl)cc2)cc1	u	x	-1.5	30	0.0	19	-2.1	41
c1ccc(Cc2nnc3sc(-c4ccccn4)nn23)cc1	3%&0%	x	-2.6	-2	-0.1	-6	4.1	x
O=C1/C(=C/c2ccc(F)cc2)SC(=S)N1CC(=O)N1CCCCC1c1cccnc1 (stereo not drawn)	x	7.2	0.3	-36	-1.1	-9	-0.5	29
CCOC(=O)C1=C(C(F)(F)F)Nc2ncnn2C1c1ccc(OC)c(OC)c1OC (stereo not drawn)	x	x	0.2	2	-0.9	-5	13	-10
CC(=O)C(Cc1cnc(Cl)s1)(Cc1cnc(Cl)s1)C(C)=O	7%	x	1.8	-1	0.6	29	-1.1	-3
CCS(=O)(=O)N1CCN(c2nc(-c3ccccc3)cs2)CC1	-4%	x	5.9	-10	-0.8	6	1.9	4
COc1ccc(CCNC(=O)Cc2cccc(C(F)(F)F)c2)cc1OC	x	0.7	5.2	-5	0.9	-7	1.9	-7
O=C(CN(CCc1ccccc1)S(=O)(=O)c1ccc(Br)cc1)N/N=C/c1ccccc1C(=O)O	1%	-2.3	6.3	-4	0.2	-4	-3.8	-15
O=C(Nc1ccccn1)c1ccc(CN(c2ccccc2)S(=O)(=O)c2ccccc2)cc1	2%	1.4	-2.8	x	-0.4	49	-4.7	27
O=C(CCCN1C(=O)/C(=C/c2ccc3c(c2)OCO3)SC1=S)Nc1cccc(C(=O)O)c1	x	5.7	-3.7	3	-8.7	0	-34	-17
CCOCCCn1c(SC(C(=O)Nc2cc(C)ccc2C)c2ccccc2)nnc1-c1ccc(Cl)cc1 (stereo not drawn)	21%	x	-4.0	8	-0.3	-12	1.3	31
O=C1CCC/C1=C/Nc1cccc(F)c1	u	x	-0.3	-2	-0.3	7	7.5	-5
CC(=O)CC1(O)C(=O)N(Cc2ccccc2)c2ccccc21 (stereo not drawn)	-4%	x	-2.5	-4	0.3	-2	2.1	-8
Cc1ccc(Cl)cc1N1CCN(C(=O)COc2ccc(S(=O)(=O)NC(C)C)cc2)CC1	7%	-5.0	-4.7	33	-0.6	-2	3.1	24
COc1c(F)c(F)c(C(=O)O)c(Nc2cc(C)cc(C)c2)c1F	8%	-3.2	-3.6	-7	-0.1	-1	u	-5
Cc1c(Cl)cccc1NC(=S)N(Cc1cccnc1)Cc1ccccc1Cl	3%	0.8	-2.6	-3	-0.1	-5	-3.2	75*
CCN1C(=O)c2ccc(C(=O)NCc3ccccc3)cc2C1=O	-2%	x	0.4	-2	0.1	-1	-0.9	2

Sorted by SMILES length (lowest first): part of the list above
SMILES	Vif TR-FRET	MLL AF4-AF9 inh	LANA-H2A inh	Beta apoptosis	Bfl-1 A1 inh	Calb FLC	RanGTP-Imp inh	T cruzi repl
CC(=O)CC1(O)C(=O)N(Cc2ccccc2)c2ccccc21 (stereo not drawn)	-4%	x	-2.5	-4	0.3	-2	2.1	-8
O=C(Nc1ccccn1)c1ccc(CN(c2ccccc2)S(=O)(=O)c2ccccc2)cc1	2%	1.4	-2.8	x	-0.4	49	-4.7	27
Cc1ccc(Cl)cc1N1CCN(C(=O)COc2ccc(S(=O)(=O)NC(C)C)cc2)CC1	7%	-5.0	-4.7	33	-0.6	-2	3.1	24
CCOCCCn1c(SC(C(=O)Nc2cc(C)ccc2C)c2ccccc2)nnc1-c1ccc(Cl)cc1 (stereo not drawn)	21%	x	-4.0	8	-0.3	-12	1.3	31
O=C(CCCN1C(=O)/C(=C/c2ccc3c(c2)OCO3)SC1=S)Nc1cccc(C(=O)O)c1	x	5.7	-3.7	3	-8.7	0	-34	-17

The results go on:
SMILES	Vif TR-FRET	MLL AF4-AF9 inh	LANA-H2A inh	Beta apoptosis	Bfl-1 A1 inh	Calb FLC	RanGTP-Imp inh	T cruzi repl
CC1CCN(C(=O)CSc2nncn2C)CC1	-3%	x	7.9	0	0.7	-12	0.1	-6
CCCc1cc(C(=O)NC2CCCCC2)no1	-4%	-7.3	1.3	-6	0.2	-8	4.3	-12
Nn1c(COc2ccccc2F)nnc1SCC(=O)NC1CCCCC1	-2%	-1.7	2.5	-3	0.9	-2	-4.2	10
CC(OC(=O)c1ccc(NC(N)=O)cc1)C(=O)Nc1ccc2c(c1)OCCO2 (stereo not drawn)	1%	-3.8	3.7	4	-0.3	x	x	x
COCCCn1c(SCC(=O)NCc2ccccc2)nc2ccccc2c1=O	28%	2.7	2.2	8	1.0	5	-0.1	17
c1ccc(CN2CCN(c3ncccn3)CC2)cc1	x	-3.6	1.0	2	-0.4	12	-1.7	-23
CC1=NN(c2ccc(C)cc2C)C(=O)C1C(c1ccccc1O)C1C(=O)N(c2ccc(C)cc2C)N=C1C (stereo not drawn)	-1%	x	-1.9	-2	0.2	-1	0.1	1
COc1cccc(C2C(C(=O)c3ccc(C)o3)=C(O)C(=O)N2CCN2CCOCC2)c1OC (stereo not drawn)	x	0.8	2.0	-9	0.8	6	4.9	-4
COc1ccc(C(C(=O)NC2CCCC2)N(C(=O)c2snc(-c3ccc(F)cc3)c2N)c2ccc(OC)cc2)cc1 (stereo not drawn)	-6%	x	4.4	15	-1.1	-9	-4.8	60*
Cc1ccc(S(=O)(=O)NCCC(=O)NCC(c2ccco2)N2CCCCC2)cc1C (stereo not drawn)	20%	0.6	5.0	-7	0.4	-4	1.4	-7
COc1ccccc1NC(=O)CSc1ccc(-c2ccccn2)nn1	x	-3.8	-1.4	-1	2.3	x	x	3
CCN(CC)S(=O)(=O)c1ccc(N2CCOCC2)c(NC(=O)C2CCCC2)c1	x	x	1.2	-1	-0.2	-4	4.5	3
CC(C)(C)n1nnc(CCc2nnn(C(C)(C)C)n2)n1	-1%	x	7.6	-4	0.6	-1	6.5	0
O=C(OCC(=O)N1CCCc2ccccc21)c1cccc(S(=O)(=O)N2CCOCC2)c1	-12%	0.0	-0.4	x	-0.1	-7	2.4	2
COc1ccc(N(CC(=O)NCCSCc2ccccc2C)S(=O)(=O)c2ccccc2)cc1	9%	-0.8	-5.9	x	0.0	-1	-2.6	21
COCCNC(=O)c1onc(CSc2ccc(C(C)C)cc2)c1C(=O)O	1%	1.1	2.4	-7	u	0	0.6	2
